# Compound activity as filed in PubChem BioAssay.
# VDR inh – inhibitors of human vitamin D receptor; Potency, µM, for inactives: max response, negative = inhibition, actives largely listed as inhibitors; VDR-SRC2-3 peptide fluorescence polarization, 2 h; 400,000 tested, 0.93% active; active = well fitted inhibition curve with a large enough effect; inconclusive = small, poorly fitted or top-dose-only effect, or another doubt; inactive = no such curve, though single readings can be large or run the other way; note: series mostly up to about 120 µM
# Target sequence (P11473 whole entry, looked up): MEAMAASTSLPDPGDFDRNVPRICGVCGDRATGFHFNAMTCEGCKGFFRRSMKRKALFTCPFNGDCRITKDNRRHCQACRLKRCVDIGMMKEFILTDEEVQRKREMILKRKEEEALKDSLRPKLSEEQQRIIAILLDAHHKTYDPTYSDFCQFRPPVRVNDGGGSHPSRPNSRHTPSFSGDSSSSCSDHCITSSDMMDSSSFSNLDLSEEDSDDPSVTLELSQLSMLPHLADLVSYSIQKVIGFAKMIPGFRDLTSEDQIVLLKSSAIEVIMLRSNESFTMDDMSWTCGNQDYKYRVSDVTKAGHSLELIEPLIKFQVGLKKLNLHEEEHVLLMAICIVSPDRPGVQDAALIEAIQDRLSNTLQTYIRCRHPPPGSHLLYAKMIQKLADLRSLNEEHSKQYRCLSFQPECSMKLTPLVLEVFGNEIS
#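 Reagent solutions, kept cold and dark, are dispensed first; compounds are then pinned in at 23 nl, plates briefly spun, and incubated 2 h at ambient temperature. Inhibition of VDR–SRC2-3 peptide binding is read by fluorescence polarization.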
# The depositor's hits bear a star; ? = inconclusive. % is set by controls: 0 for no effect and ±100 for the full control effect; potency is the fitted concentration of half-maximal effect. A portion of the library; rates above refer to the full screens.
VDR inh,SMILES
-2%,COc1ccc(-c2noc(CCC(=O)NCc3cccnc3)n2)cc1
-18%,CC(=O)c1ccc(-c2ccc(C(=O)Nc3nc(-c4ccccn4)cs3)o2)cc1
6%,COc1cc(NC2c3ccccc3C(=O)N2Cc2ccccc2Cl)cc(OC)c1 (stereo not drawn)
-23%,Cc1ccccc1C(=O)/C(C#N)=N/Nc1c(C)n(C)n(-c2ccccc2)c1=O
2%,CCOC(=O)c1sc(NC(=O)CSc2n[nH]c(-c3ccncc3)n2)c(C#N)c1C
8%,Cc1ccccc1-c1nnc(SCC(=O)Nc2ccc(Cl)cc2)n1N
-1%,Nc1cc(Cl)nc(N/N=C/c2ccccc2[N+](=O)[O-])n1
10%,O=C(Cc1c(F)cccc1Cl)NCCN1CCOCC1
-4%,Cc1cc(C)c(OCC(=O)Nc2cccc(NC(=O)c3ccco3)c2)c(Br)c1
-7%,CCN(CC)C(=O)Cn1cc(S(=O)(=O)CC(=O)NC2CCCCC2)c2ccccc21
-9%,C#CC[N+](C)(C)CC#Cc1ccc(C)cc1
-10%,COc1cc(NS(=O)(=O)c2ccc(NC(C)=O)cc2)ncn1
-10%,O=C(O)c1cccn2c(=O)c3ccccc3nc12
6%,Cc1ccc(/C=C(\C#N)C(=O)NC(C)c2ccccc2)o1 (stereo not drawn)
6%,Cc1ccc(OCC(=O)NCC2(N(C)C)CCCCC2)cc1C
-13%,Cc1ccccc1CSc1nnc(-c2ccco2)n1Cc1ccco1
9%,Cc1ccc(NC(=O)N2CCC(CN3CCCCCC3)CC2)c(Cl)c1
-11%,O=C(C1=NN(c2ccccc2)C2C(=O)N(c3cccc(Cl)c3)C(=O)C12)c1ccccc1 (stereo not drawn)
7%,O=C(CNCc1ccc(Cl)cc1)N1CCc2ccccc2C1
15%,Nc1nc2ccccc2n1C(=O)CCc1ccccc1
-11%,O=C(O)C1CC(C(=O)O)SS1 (stereo not drawn)
7%,Cc1c(C(=O)N2CCOCC2)oc2ccc(S(=O)(=O)N3CCCCCC3)cc12
-4%,COc1ccc(CCNC(=O)CSc2nc3[nH]ncc3c(=O)n2-c2cccc(C(F)(F)F)c2)cc1OC
4%,Cc1ccc(NC(=O)/C(=C\C=C\c2ccccc2)NC(=O)c2ccccc2)cc1

# In a second layout: entries from further up.
Compound	VDR inh
C#CC[N+](C)(C)CC#Cc1ccc(C)cc1	-9%
COc1cc(NS(=O)(=O)c2ccc(NC(C)=O)cc2)ncn1	-10%

# Next structures:
VDR inh,SMILES
-22%,CCOC(=O)C1CCCN(c2c(N3CCN(C)CC3)c(=O)c2=O)C1 (stereo not drawn)
-23%,COc1ccc2cc3cc(C(=O)N4CCCC(C)C4)oc3nc2c1 (stereo not drawn)
7%,CCCC(=O)c1ccc(N2CCCCCC2)c(F)c1
-3%,C=CCc1cc(Cl)ccc1OCCOCCNC(C)CC (stereo not drawn)
-11%,CCOc1cc(NC(=S)NCC2CCCO2)c(OCC)cc1NC(=O)c1ccc(F)cc1 (stereo not drawn)
9%,CCCCn1c(CN(Cc2ccccc2)Cc2ccccc2)nc2c1c(=O)n(C)c(=O)n2C
-7%,COc1ccc(C(=O)N/C=C/n2cnc3cc(C(F)(F)F)ccc32)cc1
8%,COc1ccc(Nc2nnc(C)c3ccccc23)cc1
45µM*,c1ccc(CNc2nc(-c3ccc4c(c3)OCO4)nc3ccccc23)cc1
-10%,COc1ccccc1N(CC(=O)N/N=C(\C)c1cccc(Br)c1)S(C)(=O)=O
12%,Cc1ccc(NS(=O)(=O)c2ccc(-c3coc(C)n3)cc2)c(Br)c1
-3%,COc1cccc(C(=O)N2CCSC2=S)c1

# Part of the list above, with bars between the fields.
structure | VDR inh
c1ccc(CNc2nc(-c3ccc4c(c3)OCO4)nc3ccccc23)cc1 | 45µM*
COc1ccccc1N(CC(=O)N/N=C(\C)c1cccc(Br)c1)S(C)(=O)=O | -10%

# The results go on.
VDR inh,SMILES
-18%,Cc1cc(NC(=O)CN2C(=O)NC3(CCCCC3)C2=O)ccc1N1CCCC1
3%,Cc1ccc(C)c(NC(=S)N2CCC(NC(=O)c3cccc(F)c3)CC2)c1
-7%,CC(C)CC(=O)Nc1ccc(S(=O)(=O)Nc2nccs2)cc1
-8%,[O]=[Bi][O][Bi]=[O]
-20%,O=c1c(-c2ccc(Cl)cc2)nc2cnc(Nc3ccccc3)nc2n1C[C@H]1CCCO1
32µM*,COc1cc(C2NC(=O)C(C#N)=C(Nc3cccc(C)c3)S2)ccc1O (stereo not drawn)
-8%,Cc1noc(C)c1C(=O)NC1=NCCS1
-8%,N/C(=N\OC(=O)CCCOc1ccccc1)c1ccccc1
9%,CS(=O)(=O)C1=C(O)C(=O)N(CCCC(=O)O)C1c1ccccc1F (stereo not drawn)
0%,CCOc1ccc(C(=O)CCC(=O)N(CC)CC(=O)NCc2ccc(Cl)cc2)cc1
-5%,N#Cc1c(Cl)cccc1-n1ccnc1
-22%,COc1ccccc1N1CC(C(=O)NCCN2C(=O)S/C(=C\c3cccnc3)C2=O)CC1=O (stereo not drawn)
1%,COc1ccc(C(=S)N2CCCC2)cc1Br
-9%,C=CCSc1nc(N)c(C(=O)Nc2ccccc2)cc1C#N
5%,NS(=O)(=O)c1ccc(NC(=O)CSc2nnc3c(n2)[nH]c2ccccc23)cc1
-2%,O=C(NCCS(=O)(=O)NCc1ccc(F)cc1)c1ccccc1
-30%,COc1ccc(CCNC(=O)C2CCN(C(=O)c3cccs3)CC2)cc1
-1%,Cc1ccc(C(=O)N/C(N)=N/c2nc3ccccc3o2)cc1
1%,COc1ccc(CCNC(=O)c2cc(S(=O)(=O)N3CCC4(CC3)OCCO4)ccc2F)cc1OC
7%,C[C@@H]1CN(c2c(F)c(N)c3c(=O)c(C(=O)O)cn(C4CC4)c3c2F)C[C@H](C)N1
9%,Cc1ccc(C)c(N2CCN(C(=O)Cn3c(=O)c4cccn4c4ccc(F)cc43)CC2)c1
-5%,Cc1c(NC(=O)C2CCCO2)cccc1[N+](=O)[O-] (stereo not drawn)
3%,COc1cc(CNC2CCCCC2OC)cc(OC)c1OC (stereo not drawn)
5%,N#CN/C(=N\S(=O)(=O)c1ccccc1)c1ccccc1
-1%,CC1C(=O)CC(c2ccccc2)N(C)C1c1ccccc1 (stereo not drawn)
-10%,CCCN1CCC(NC(=O)Nc2ccc(Br)cc2)CC1
-15%,OCCC1CN(Cc2cccc(OC3CCCC3)c2)CCN1Cc1ccsc1 (stereo not drawn)
-4%,COc1ccc(CNC(=O)CCCN2C(=O)c3ccccc3C2=O)cc1
-10%,OCCNc1ncnc2ccc(Br)cc12
?,CCOc1ccc(N=C(/C(C(=O)C(=O)N2CCOCC2)=C(/O)c2ccccc2)c2ccccc2)cc1
?,Cc1cccc(N2CCN(C(=O)C3CCC(=O)N(C4CC4)C3)CC2)c1C (stereo not drawn)
-8%,Cc1ccc(C)c(-n2c(Cc3cc(=O)[nH]c(=O)[nH]3)nnc2SCC(=O)NCc2ccco2)c1
-15%,N/C(=N\OC(=O)c1ccc(Br)cc1)c1ccccc1
-5%,COc1ccc(S(=O)(=O)N(C)C(C)CCc2ccco2)cc1 (stereo not drawn)
3%,CCC(=O)Nc1ccc(Cl)c(NC(=S)NC(=O)COc2ccccc2)c1
-3%,CC1CN(S(=O)(=O)c2ccccc2)CC(C)O1 (stereo not drawn)
2%,CCOC(=O)C1=C(N)Oc2cc(C)[nH]c(=O)c2C1c1ccncc1 (stereo not drawn)
3%,O=C(NCCN1CCOCC1)C1CCC(=O)N1Cc1ccccc1Cl (stereo not drawn)
4%,CC(C)N(C(=O)COC(=O)c1cccc(C(=O)OCC(=O)N(C(C)C)C(C)C)n1)C(C)C
-16%,COc1ccc(OC)c(NC(=O)c2[nH]c(C)c(C(C)=O)c2C)c1
0%,CC(C)(C)NC(=O)NC(=O)COC(=O)c1ccc(OC(F)(F)F)cc1
-2%,CCCc1noc2c1/C(=N\O)CC(CC(C)SCC)C2 (stereo not drawn)
3%,COc1ccc(S(=O)(=O)N2CCN(C(=O)c3ccco3)CC2)cc1C(C)(C)C
11%,CCOC(=O)c1c(C)oc2nc(C)nc(NCC3CCN(Cc4cc(C)ccc4C)CC3)c12
-13%,Cc1ccc(NC(=O)COC(=O)C(NS(=O)(=O)c2ccc(Cl)cc2)C(C)O)cc1C (stereo not drawn)
3%,CC(NC(=O)CN(C)CC(=O)Nc1ccc(Cl)cc1)c1ccc(F)cc1 (stereo not drawn)
?,CCCNC(=O)c1nnsc1S(=O)(=O)c1ccc(Cl)cc1
-7%,CC1(C)CC(=O)C(C(c2ccc(F)cc2)C2C(=O)CC(C)(C)CC2=O)C(=O)C1

# Three entries from above, arranged by the number in VDR inh, ascending:
VDR inh,SMILES
-16%,COc1ccc(OC)c(NC(=O)c2[nH]c(C)c(C(C)=O)c2C)c1
2%,CCOC(=O)C1=C(N)Oc2cc(C)[nH]c(=O)c2C1c1ccncc1 (stereo not drawn)
4%,CC(C)N(C(=O)COC(=O)c1cccc(C(=O)OCC(=O)N(C(C)C)C(C)C)n1)C(C)C

# Additional results:
VDR inh,SMILES
-16%,c1cc2cn[nH]c2cc1NC1CCCCCC1
-17%,O=C(O)CC1(CC(=O)Nc2cc(F)ccc2Cl)CCCCC1
-3%,Cc1c(CC(=O)NCCc2ccccc2)c(=O)oc2c(C)c3occ(C(C)(C)C)c3cc12
?,CCCCN(CC)c1nc(N)c2c(N)nc(OCC)cc2c1C#N
?,S=C(NCc1ccco1)Nc1ccc(N2CCOCC2)cc1
-7%,CCCCNC(=O)O[C@H]1C[C@@H]2CCN3C(=O)CCC[C@H]([C@H]1Cc1ccccc1)[C@H]23
9%,COc1ccc(CCNC(=O)C(=O)NCC(c2ccco2)S(=O)(=O)c2ccccc2)cc1OC (stereo not drawn)
6%,CC(=O)c1ccc(C(=O)N2CCCC(CO)(Cc3ccccc3C)C2)s1 (stereo not drawn)
-8%,CCn1c(/C=C/c2ccccc2F)nc2ccccc2c1=O
12%,CCOC(=O)CC(NC(=O)CCc1c(C)nc2c(c(C)nn2-c2ccc(C)c(C)c2)c1C)c1ccc(C)cc1 (stereo not drawn)
-4%,c1ccc(Cc2nnc(N3CCOCC3)c3ccccc23)cc1
8%,CCc1ccc(-n2c(=O)c3cccnc3n2CC(=O)Nc2cc(OC)ccc2OC)cc1
-9%,CC(=O)Nc1nnc(SCC(=O)Nc2ccc3c(c2)OCCO3)s1
2%,COc1cc(OC)cc(C(=O)NCCCCNC(=O)c2cc(OC)cc(OC)c2)c1
-17%,Cc1ccc2[nH]cc(CCNS(=O)(=O)c3ccc(F)cc3)c2c1
2%,CCCNC(=O)CCC(=O)Nc1ncc(-c2ccc(C)cc2)n1C
-6%,COCC(=O)Nc1cc(C(=O)NCC(C)C)ccc1Cl
-18%,Cc1ccc(NC(=O)C2CCN(S(=O)(=O)c3cccc4nsnc34)CC2)cc1
1%,O=C(Nc1cccc(F)c1)c1oc2ccccc2c1NC(=O)C12CC3CC(CC(C3)C1)C2
8%,CC(=O)Cc1nsc(NC(=O)c2ccc(COc3ccccc3Cl)o2)n1
-7%,COC(=O)C1=C(C)N(CC2CC2)C(=NCc2cc(OC)c(OC)c(OC)c2)N[C@H]1c1ccccc1
-21%,CCOC(=O)c1sc(NC(=O)CCN2CCN(C)CC2)c(C(=O)OCC)c1C
6%,Cc1ccc(NC(=O)c2sccc2C)cc1S(=O)(=O)N(C)C
3%,CS(=O)(=O)N(CC(=O)N1CCCC1)c1ccc2c(c1)OCCO2

# Arranged by length of the SMILES (smallest number first): some entries from above.
VDR inh,SMILES
6%,Cc1ccc(NC(=O)c2sccc2C)cc1S(=O)(=O)N(C)C
3%,CS(=O)(=O)N(CC(=O)N1CCCC1)c1ccc2c(c1)OCCO2
-21%,CCOC(=O)c1sc(NC(=O)CCN2CCN(C)CC2)c(C(=O)OCC)c1C
2%,COc1cc(OC)cc(C(=O)NCCCCNC(=O)c2cc(OC)cc(OC)c2)c1
-18%,Cc1ccc(NC(=O)C2CCN(S(=O)(=O)c3cccc4nsnc34)CC2)cc1
-7%,COC(=O)C1=C(C)N(CC2CC2)C(=NCc2cc(OC)c(OC)c(OC)c2)N[C@H]1c1ccccc1

# Next section:
VDR inh,SMILES
11%,O=C(O)C1[C@H]2C(=O)N(Cc3cccs3)C[C@]23C=C[C@H]1O3 (stereo partly drawn)
-12%,CCOC(=O)Cn1c(=O)oc2cc(S(=O)(=O)N(C)Cc3ccccc3)ccc21
-8%,CCOC(=O)c1cc(C)sc1NC(=S)Nc1ccccc1
-2%,CC(=O)N1CCCc2cc(S(=O)(=O)N3CCCC(C)C3)ccc21 (stereo not drawn)
19%,CCOC(=O)C1CCN(S(=O)(=O)c2cc(-c3cc(C)no3)ccc2OC)CC1
3%,COc1ccc(OC)c(-c2nnc(NC(=O)C(C)Sc3nncn3C)s2)c1 (stereo not drawn)
-22%,CCc1nnc(NC(=O)c2cc(-c3ccc(C)o3)nc3ccccc23)s1
-3%,CCc1ccc2oc(C(=O)N3CCN(C)CC3)cc(=O)c2c1
11%,CCn1ccc2cc(S(=O)(=O)N3CCC(C(=O)NCc4ccc(F)cc4)CC3)ccc21
79µM*,Cn1c(/C(C#N)=C/c2cccc(O)c2)nc2ccccc21
9%,O=C(c1cccc(N2C(=O)C3CC=CCC3C2=O)c1)N1CCCCCC1 (stereo not drawn)
-7%,Cc1ccc(/C=C/C(=O)Nc2nnc(C)s2)o1
-11%,COc1cccc(Cn2c(=O)oc3ccccc32)c1
-9%,CSCCC(NC(=O)c1cc(C)oc1C)C(=O)O (stereo not drawn)
?,Cc1c(Cl)cccc1NC(=S)N(Cc1ccco1)C(C)c1ccccn1 (stereo not drawn)
15%,Cc1nnc(SC(C)C(=O)Nc2ccc3ccccc3c2)n1C (stereo not drawn)
-2%,COc1ccc(NC(=S)N2N=CCC2c2ccccc2)cc1 (stereo not drawn)
-12%,COc1ccc(-c2csc(/C=C/c3ccc4c(c3)OCO4)n2)cc1OC
14%,CCOc1cc(C(=S)N2CCCC2)ccc1OCc1ccccc1
